Compound activity from PubChem BioAssay.
Beta apoptosis: beta cell apoptosis inhibition | INS-1E cytokine-induced death, ATP luminescence, 48 h; percent of positive-control rescue, neutral wells zero | protection from apoptosis, % (concentration not given with the values) | 0.8% of 300,000 active | AID 435005;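 active = all replicates at 75% or more, or half of them and the mean; inconclusive = half reach 75% but not the mean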;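 note: 0% = cytokine-treated negative control wells and 100% = positive control rescue; higher means more ATP so stronger rescue from cytokine killing; wells of about 40 µL received 100 nL stock; the first replicate is given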
T cruzi repl: blocks replication of Trypanosoma cruzi. inhibition, % (test concentration not listed). T. cruzi beta-gal in NIH3T3, luminescence, 90 h. 1.4% of 300,000 active;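 active = mean inhibition across valid replicates above about 55%, limit read from the data; inconclusive = mean below that limit but half or more replicates reach it; inactive = mean below it, under half of replicates reach it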;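 note: signal also drops with host cell toxicity which is not excluded here; 0% = plate median of DMSO wells and 100% = zero luminescence signal; higher percent means less beta-gal luminescence so fewer parasites; stock transfer was 50 nL into about 50 µL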
LANA-H2A inh: blocks KSHV LANA binding to histone H2A/H2B. cell-free LANA-H2A/H2B peptide, fluorescence polarization. 0.6% of 320,000 active. inhibition, % (no concentration beside the values). Q9QR71; in the data active = inhibition mostly above about 10%, no sharp cut-off; inactive = mostly below about 6.7%;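 note: stock transfer was 7.5 nL into about 10 µL; 0% = median of vehicle wells and 100% = median of positive control wells; one replicate is shown; the record names a cut of 25% in any replicate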
Target sequence (Q9QR71 whole entry, looked up): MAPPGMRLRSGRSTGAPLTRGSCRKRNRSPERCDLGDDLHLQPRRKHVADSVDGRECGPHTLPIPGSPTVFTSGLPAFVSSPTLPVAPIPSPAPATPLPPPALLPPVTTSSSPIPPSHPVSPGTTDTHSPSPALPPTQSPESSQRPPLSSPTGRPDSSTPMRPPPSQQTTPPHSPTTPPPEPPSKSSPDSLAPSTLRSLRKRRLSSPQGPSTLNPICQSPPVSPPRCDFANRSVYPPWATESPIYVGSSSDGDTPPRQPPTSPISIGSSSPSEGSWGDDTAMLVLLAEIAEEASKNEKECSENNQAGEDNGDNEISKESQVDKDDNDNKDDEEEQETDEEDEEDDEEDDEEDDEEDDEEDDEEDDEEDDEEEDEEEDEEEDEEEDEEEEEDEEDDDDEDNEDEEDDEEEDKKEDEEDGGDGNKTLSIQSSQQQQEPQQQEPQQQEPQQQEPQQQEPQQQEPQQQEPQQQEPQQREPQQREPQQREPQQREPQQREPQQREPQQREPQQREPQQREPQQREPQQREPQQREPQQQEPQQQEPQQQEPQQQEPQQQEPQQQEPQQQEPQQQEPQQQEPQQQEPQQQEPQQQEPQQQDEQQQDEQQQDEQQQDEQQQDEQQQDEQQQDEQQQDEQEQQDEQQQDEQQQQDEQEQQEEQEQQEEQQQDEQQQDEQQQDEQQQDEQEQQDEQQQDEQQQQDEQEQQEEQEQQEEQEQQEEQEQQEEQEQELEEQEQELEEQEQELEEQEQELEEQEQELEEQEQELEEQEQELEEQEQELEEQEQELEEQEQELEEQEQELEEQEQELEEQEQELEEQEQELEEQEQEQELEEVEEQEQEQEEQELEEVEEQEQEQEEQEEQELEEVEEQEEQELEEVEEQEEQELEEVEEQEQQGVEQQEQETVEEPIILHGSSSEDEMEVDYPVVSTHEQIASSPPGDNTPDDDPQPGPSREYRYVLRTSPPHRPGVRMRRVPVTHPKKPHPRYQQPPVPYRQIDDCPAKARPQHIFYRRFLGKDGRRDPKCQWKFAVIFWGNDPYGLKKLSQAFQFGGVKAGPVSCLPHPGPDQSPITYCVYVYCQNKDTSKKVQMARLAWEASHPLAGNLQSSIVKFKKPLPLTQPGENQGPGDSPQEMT
RanGTP-Imp inh: inhibitors of RanGTP-importin-beta interaction, primary screen, biochemical, FRET, CFP-Ran, YFP-importin-beta, homogeneous | cell-free CFP-Ran/YFP-importin-beta FRET ratio | inhibition, % (no concentration beside the values) | 1.1% of 300,000 active | AID 2216;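 active = most replicates above 15%; inconclusive = exactly half above 15%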;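 note: 0% = DMSO wells and 100% = Ran loaded with GDP instead of GTP; wells of about 40 µL received 100 nL stock; the first replicate is given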
AF4-AF9 inh: blocks AF4 peptide binding to human AF9. P42568. AlphaScreen, biotin-AF4 peptide binding to FLAG-AF9. inhibition, % at 10 µM. 0.47% of 350,000 active;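 active = every replicate reaching a set inhibition limit, whatever the replicate mean, cut at about 25% in these data; inconclusive = mean inhibition reaches that limit but some replicates miss it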;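 note: 0% = plate neutral control median and 100% = total signal loss; the record names both 10 and 1 µM as test concentration; the first replicate is given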
A1 inh: inhibitors of the anti-apoptotic protein A1, read as caspase activation; MEF A1-2A-BIM cells, Caspase-Glo 3/7 luminescence, 3 h; percent of clofoctol response, vehicle zero; caspase activation, % (concentration not given with the values); 0.066% of 330,000 active; AID 2462;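 active = over half of replicate activation scores above 10%, or exactly half above 10 with the replicate mean above 10; inconclusive = replicate mean below 10 yet half the replicates above 10; inactive = over half of replicates below 10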;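 note: wells of about 30 µL received 50 nL stock; many hits fall short of the cut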
Calb FLC: C. albicans growth modulation with fluconazole; C. albicans CaCi-2 (fluconazole-resistant clinical isolate) + fluconazole, Alamar Blue growth, 48 h; growth inhibition, % (no concentration beside the values); 0.57% of 300,000 active;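 active = most replicates above 75%; inconclusive = exactly half above 75%; inactive = most below 75%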;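 note: all wells also contain fluconazole at 8 µg/ml as a sub-toxic cotreatment; 0% = median of DMSO wells and 100% = median of geldanamycin control wells; wells of about 8 µL received 7.5 nL stock; the first replicate is given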
Vif A3G: HIV-1 Vif–A3G interaction blockers – biochemical, TR-FRET, GST-Vif 1-94, biotin-A3G peptide, dose response retest, primary screen (AID 1117319). 0.57% of 260,000 active. TR-FRET GST-Vif / biotin-A3G peptide binding; higher % means a stronger effect; test concentration not given here; strong numbers were not always called active. inhibition, %, or IC50 in µM where a hit was titrated;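 active = above the screen mean plus three standard deviations and confirmed in dose response; inconclusive = results disagree or hit not tested in dose response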;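 note: Vif residues 1-94 fused to GST binding biotinylated APOBEC3G peptide 110-148; 0% = full assay without inhibitor and 100% = GST in place of GST-Vif; retest series ran down from 100 µM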
Active calls of the source: *; u = inconclusive; x = not tested or not shown; & = joins results of further samples. Compounds were not picked by outcome; any-hit rate near 4.3%.

SMILES	Beta apoptosis	T cruzi repl	LANA-H2A inh	RanGTP-Imp inh	AF4-AF9 inh	A1 inh	Calb FLC	Vif A3G
O=C(CNC(=O)COc1ccccc1)NCc1ccccc1F	-1	1	-1.6	-0.4	-2.4	0.3	0	17%
CCOc1cc(C(=O)CCC(=O)OCC(=O)Nc2ccc(C)c(S(=O)(=O)N(C)C)c2)ccc1O	1	-3	4.3	-2.2	0.5	1.3	-19	u
COc1ccc(N(C)C(=O)CC2(CC(=O)O)CCCCC2)cc1	-5	4	7.7	2.6	x	0.6	0	1%
Cc1occc1C(=O)Nc1cc(=O)n(C)c(=O)n1C	0	0	1.7	-1.6	x	0.7	-2	u
CCOC(=O)CCSc1nnc(-c2cccnc2)n1-c1ccccc1OC	1	-9	-2.3	3.3	x	0.5	5	-1%
COc1cc2[nH]c(=S)nc(NCc3cccnc3)c2cc1OC	-6	-9	0.1	0.4	-3.6	1.3	2	-26%
CC(=O)N/C(=C\c1ccc(Cl)cc1)C(=O)O	-3	-7	-0.8	-3.0	-1.7	-1.6	4	-4%
CC(C)CCC(=O)N1CCC(N2CCC(C(=O)NCc3ccccn3)CC2)CC1	-11	-2	3.6	3.1	3.5	0.8	6	x
COc1ccc(CNC(=O)Cn2cc([N+](=O)[O-])cn2)cc1	-4	-4	-5.4	-4.5	-3.8	0.0	8	x
N#Cc1cc2c(nc1SCC(=O)Nc1sc3c(c1C#N)CCC3)CCCCC2	18	4	1.3	-1.9	x	0.3	46	1%
COCCNc1oc(-c2ccccc2Cl)nc1S(=O)(=O)c1ccc(C)cc1	0	x	3.3	x	2.5	0.0	x	-9%
CCN1C(=O)C(CC(=O)Nc2ccc(OC)cc2)N(CCN2CCOCC2)C1=S (stereo not drawn)	-7	-5	5.9	-2.0	3.8	1.4	-1	x
COc1ccccc1NC(=O)Cn1nnc(C(=O)NCc2cccs2)c1N	x	-9	8.3	-1.8	-33	0.2	4	-2%
Cc1ccc(C)c(OCC(=O)Nc2nc3ccc([N+](=O)[O-])cc3s2)c1	5	-11	-0.3	-1.4	x	0.2	-3	x
Cc1noc(C)c1C(=O)N1CCc2ccccc21	-7	-6	1.9	-4.2	8.1	1.6	29	5%
CCCCCCNS(=O)(=O)c1ccccc1Br	-3	-5	3.8	2.3	-0.2	0.3	-9	73%
O=C(Cc1cccs1)N1CCN(S(=O)(=O)c2ccc(Br)cc2)CC1	0	7	1.6	-0.9	-0.1	0.8	7	x
CCCCC1(Cc2ccc(OC)c([N+](=O)[O-])c2)C(=O)N(c2ccccc2)N(c2ccccc2)C1=O	3	23	0.9	2.4	x	-0.9	-7	-3%&27%
COc1nccnc1NS(=O)(=O)c1ccc(NC(=O)c2cccc(C)c2)cc1	-4	-6	-1.0	-2.0	-1.1	0.4	-11	-8%
COc1ccc(NS(=O)(=O)c2ccc(N3CCCC3)c(NC(=S)Nc3ccc(SC(F)F)cc3)c2)cc1	17	6	5.8	-0.8	14	-0.2	-21	x
CCc1ccc(S(=O)(=O)c2ccc(-n3nc(C)cc3N)cc2)cc1	8	-3	-4.1	-2.5	-3.4	1.8	5	8%
COc1ccc(C(C)=O)cc1COc1ccc([N+](=O)[O-])c(C)c1	8	1	1.2	1.1	2.3	0.2	3	-1%
CCN1CCN(c2cc(C)c3cc(NC(=O)c4ccncc4)ccc3n2)CC1	x	13	-0.2	-3.0	-2.7	0.2	-4	12%
O=C(O)CCCN1C(=O)/C(=C/c2cn(-c3ccccc3)nc2-c2cccs2)SC1=S	x	35	x	-17	x	x	u	29%
C=CCn1c(SCC(C)=O)nnc1-c1cc(-c2ccccc2)sc1N	9	6	2.0	u	x	-0.1	u	32%
COC(=O)c1cc(S(=O)(=O)Nc2cc(OC)cc(OC)c2)c[nH]1	-10	2	2.8	2.6	2.7	0.4	0	-4%
CCc1ccc2oc(=O)cc(CN3CCCCC3)c2c1	5	-10	-6.4	0.4	-1.3	u	7	0%
O=C(CSc1nnc(CN2CCOCC2)n1-c1ccc(Cl)cc1)N1CCc2ccccc21	1	9	-1.1	3.9	x	-0.1	1	-3%
COc1ccccc1O	-10	-8	-7.7	-1.7	0.6	0.2	6	x
COc1cccc(NC(=O)[C@H](CC(C)C)NC(=O)[C@@H]2Cc3ccccc3CN2)c1	-2	-9	-1.4	2.6	-1.1	-1.4	8	0%
COc1cc(OC)c(OC)cc1CN1CCN(Cc2ccco2)CC1	-5	5	4.6	-3.1	0.4	0.2	-3	x
Cc1cccc(C(=O)NNC2=CC(=O)CC(C)(C)C2)c1O	3	6	6.8	-1.8	0.8	-3.0	3	-4%
CC1CCc2[nH]c3ccc(C(=O)N(C)CC(=O)Nc4cccc(F)c4)cc3c2C1 (stereo not drawn)	-3	-18	-3.9	10	1.6	0.3	17	x
Cc1ccc2nc(N/C(=N/S(=O)(=O)c3ccc(F)cc3)c3ccccc3)sc2c1	5	19	8.3	-1.9	-0.5	-0.1	12	-12%
CC1(C(=O)NCCCN2CCOCC2)Oc2cccnc2NC1=O (stereo not drawn)	-1	0	-2.3	-3.8	-0.1	-0.1	0	6%
O=C(NC(=O)N1CCN(c2ccccc2F)CC1)c1ccccc1	-2	0	1.4	2.8	-1.0	0.2	12	3%
Fc1ccccc1/C=N/Nc1cc(N2CCCCC2)ncn1	11	3	-2.2	-0.7	1.4	-2.0	-16	x
CC(=O)N/C(=C\c1ccccc1)C(=O)OCC(=O)N(C)C1CCCCC1	-4	-6	-5.1	-7.2	x	0.8	-8	x
O=C(N/N=C/c1ccc(O)c(O)c1)NC12CC3CC(CC(C3)C1)C2	14	-14	4.1	1.6	13	-0.3	-6	x
CCC1(c2ccccc2)NC(=O)N(CC(=O)Nc2ccc(N3CCCC3)cc2C)C1=O (stereo not drawn)	8	3	2.9	x	-2.7	1.2	-1	0%
O=C(c1cc([N+](=O)[O-])ccc1N1CCCCC1)N1CCc2ccccc21	26	6	-1.9	0.3	17	1.0	15	20%
O=C(Nc1ccc(Cl)c(C(F)(F)F)c1)N1CCCC(O)C1 (stereo not drawn)	-5	0	3.9	0.7	x	-0.2	-1	21%
CN(c1ccc(O)cc1)c1nc(-c2cccs2)cs1	-8	-8	-3.3	-1.5	16	0.8	2	x
Cc1ccc(N(CC(=O)NC2CCCCC2)C(=O)CNC(=O)c2ccco2)cc1C	-2	6	-1.4	0.9	2.5	-0.1	-9	x
CC(=O)c1cc(C#N)c(SCc2ccc([N+](=O)[O-])cc2)nc1C	-4	2	-5.4	6.4	-0.5	1.5	25	-7%
COc1ccc(C(=O)NC2CC2)cc1OC1CCN(C(C)CSC)CC1 (stereo not drawn)	-6	16	0.8	4.0	-11	0.1	-11	x
Cc1ccc(C2=Nc3ccccc3N=C(C(Cl)Cl)C2)cc1	20	11	3.2	2.0	9.6	-7.6	16	7%
Cc1[nH]c2ccccc2c1C=NNC(=O)c1cc(-c2cccnc2)nc2ccccc12	0	x	-0.8	x	0.9	-0.7	x	x
Cc1ccc(NC(=O)c2ccc3[nH]c(=O)c(=O)[nH]c3c2)nc1	-3	2	1.4	1.6	1.4	0.7	x	-9%
Cc1nn(CC(=O)N2CC(=O)Nc3ccccc32)c(C)c1[N+](=O)[O-]	1	-10	2.6	-1.1	-7.5	0.1	0	-5%
The list continues.
SMILES	Beta apoptosis	T cruzi repl	LANA-H2A inh	RanGTP-Imp inh	AF4-AF9 inh	A1 inh	Calb FLC	Vif A3G
COc1cc(OC)c(C2SCCN2S(=O)(=O)c2ccc(F)cc2)cc1OC (stereo not drawn)	-1	8	2.2	-0.6	x	0.7	-1	-6%
COc1ccc(CNC(=O)COC(=O)c2ccc(Br)cc2)cc1	-4	1	1.1	-1.7	-4.8	-1.0	0	1%
COC(=O)c1cc2occc2n1CC(=O)Nc1cc(OC)cc(OC)c1	-6	7	-1.6	6.9	x	1.2	1	5%
O=C(NC1CCCC1)C(c1cccs1)N(CC1CCCO1)C(=O)Cc1cccs1 (stereo not drawn)	-5	14	2.2	-0.2	x	0.0	8	7%
CCS(=O)(=O)N1Cc2ccccc2CC1C(=O)Nc1ccc(F)c(F)c1 (stereo not drawn)	-4	-6	4.9	-3.7	-0.1	-0.2	-1	x
Cc1nc2ccc([N+](=O)[O-])cc2c(=O)n1Cc1ccccc1Br	0	11	-5.9	-0.3	11	-0.3	1	4%
CCCN(CC(=O)Nc1ccc(Cl)cc1Cl)C(=O)/C=C/c1ccco1	-2	-16	-6.2	-3.1	2.4	0.0	4	x
CCOc1cccc(=O)c2c(C)oc(C)c12	2	-6	8.1	-5.5	3.1	0.7	-7	6.2µM*
Cn1c(Cn2cnc3ccccc32)nc2ccccc21	30	3	2.7	2.3	x	-0.2	2	-5%
O=C(CCN1C(=O)c2ccccc2C1=O)Nc1cccc(S(=O)(=O)N2CCCCC2)c1	-6	9	-4.3	3.1	x	-0.2	11	9%
S=C(NCCCc1ccccc1)NCc1ccccc1	-7	x	0.7	x	1.9	0.1	-40	x
Cc1ccc(N=Cc2c(O)c3ccccc3oc2=O)cc1F	-12	1	0.3	6.4	-0.2	1.0	-4	x
O=C(CSc1nc2ccc(NC(=O)C3CCCCC3)cc2s1)NCC1CCCO1 (stereo not drawn)	-1	-7	0.3	u	x	0.5	11	-7%
O=C(/C=C/c1ccc(Cl)c(Cl)c1)NCCCn1ccnc1	x	-19	2.7	-0.9	8.0	-0.7	13	x
C[C@@H](NC(=O)CN1C(=O)c2ccccc2S1(=O)=O)c1ccccc1	2	-18	-4.7	0.0	-0.3	0.0	-15	x
Cc1ccc2nc(Cl)nc(-c3ccccc3)c2c1	-6	-22	-3.1	-0.6	1.1	0.1	47	13%
COc1cccc(NC(=O)N2C3CCCC2CC(NC(=O)C(C)(C)C)C3)c1 (stereo not drawn)	1	-8	1.9	-3.4	1.2	0.3	3	x
COc1ccccc1C(=O)NCCNc1ccc([N+](=O)[O-])cc1Cl	x	-11	-3.3	0.3	-0.8	-0.1	21	-1%
CN(CCc1ccccn1)C(=O)CCC1CCCN(C(=O)c2ccsc2)C1 (stereo not drawn)	-5	-1	-4.7	-2.9	-3.1	1.4	-19	-6%
CCOc1cc(NC(=S)NCCCN2CCOCC2)c(OCC)cc1NC(=O)c1ccco1	-7	13	3.4	-1.8	-0.6	0.3	0	2%
C=C(C)C(=O)Nc1cccc(C2=NOC3(C2)C[C@H](C(N)=O)N(C(=O)/C=C/C)C3)c1 (stereo partly drawn)	-2	-9	0.1	-2.8	-26	-0.1	-4	x
COC(=O)C1=C(Nc2ccc(OC)cc2)C=C(C)C(C(=O)OC)C1c1ccc(C)cc1 (stereo not drawn)	9	-6	-2.1	0.0	x	-0.3	10	68%
CCOc1ccccc1N(CC(=O)N/N=C(\C)c1cccc(Br)c1)S(C)(=O)=O	x	9	-1.2	2.3	-1.0	-0.8	4	u
Cc1ccsc1-c1cc(C(=O)O)c2c(ccc3ccccc32)n1	-4	-2	6.3	6.3	-3.7	1.6	-2	-5%
COc1ccc(S(=O)(=O)N2CCCCC2)cc1NC(=O)CSc1ncnc2ccccc12	-2	12	-3.5	4.5	x	-0.1	3	6%
